AmpC nodet inh: inhibitors of E. coli AmpC beta-lactamase without detergent; Potency, µM (doses to about 28.7 µM), without a hit: at the highest dose activity change, negative = inhibition; 1.8% of 71,000 active; AmpC nitrocefin hydrolysis, absorbance 480 nm, no detergent; potencies from a single point are estimates; AID 585; P00811; active = falling curve, for most hits resting on a single point; inconclusive = weak or doubtful change; inactive = flat or rising curve; further: % of control where 0% means no effect; about half of the hits show no inhibition at the top dose; a quarter of the inactives give rising signals
Target sequence (P00811 whole entry, looked up): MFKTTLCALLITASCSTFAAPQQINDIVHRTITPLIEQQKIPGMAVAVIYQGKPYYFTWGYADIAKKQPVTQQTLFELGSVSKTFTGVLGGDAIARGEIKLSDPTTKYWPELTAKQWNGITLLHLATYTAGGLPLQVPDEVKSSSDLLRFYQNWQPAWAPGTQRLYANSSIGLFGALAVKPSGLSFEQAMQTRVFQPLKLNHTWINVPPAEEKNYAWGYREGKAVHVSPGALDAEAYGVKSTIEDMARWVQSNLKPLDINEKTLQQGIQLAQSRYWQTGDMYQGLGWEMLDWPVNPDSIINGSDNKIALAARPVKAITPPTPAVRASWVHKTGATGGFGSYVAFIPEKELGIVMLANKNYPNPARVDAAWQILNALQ
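AmpC in 20 mM phosphate buffer pH 7.0 was preincubated 15 min at room temperature with compounds. Nitrocefin (800 uM stock) was then added and hydrolysis followed at 480 nm every 20 s for 4 min.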
Starred values were filed as active, the others as inactive; ? = inconclusive; & = joins results of further samples; [ ] = dose if it differs, or a comment. Potency means the concentration at half of the fitted maximal effect. This is a subset; rates above refer to the full screens.

| mol | AmpC nodet inh |
| --- | --- |
| CCCn1nnc2sc3c(c2c1=O)CCC(C)C3 (stereo unspecified) | 13% |
| Cc1cc(C)n(-c2nc3ccccc3c3nc(C)nn23)n1 | 10% |
| O=C(CNCc1ccco1)Nc1ccccc1-n1cccc1 | 0% |
| O=[N+]([O-])c1ccc(NN=C2c3ccccc3Cc3ccccc32)c([N+](=O)[O-])c1 | -4%[5.75 µM] |
| CN1CCc2nc(SCC(=O)Nc3ccc(F)cc3)c(C#N)cc2C1 | 13% |
| CN(C)c1ccc2c(c1)OC(N)=C(C#N)C2c1cccc(F)c1 (stereo unspecified) | 2% |
| COc1ccc(N2CCN(Cc3nc(N)nc(Nc4ccc(C)c(Cl)c4)n3)CC2)cc1 | 122% |
| COc1ccc(S(=O)(=O)N2CCN(C)CC2)c2ccccc12 | 4µM*[single pt active] |
| Cc1cc(C2N=C(N)Nc3nc4ccccc4n32)c(C)n1-c1ccccc1Cl (stereo unspecified) | 6% |
| COc1c2c(nc3occc13)C(CCC(C)(C)O)(OC)C(O)CC2 (stereo unspecified) | 2% |
| Cc1cc(C)n(-c2nc3ccccc3nc2N2CCCCCC2)n1 | 92% |
| O=C(Nc1ccc2oc(-c3ccccc3F)nc2c1)c1cncc(Br)c1 | 0% |
| CC1CCCN(CC(=O)Nc2ccc(S(=O)(=O)N3CCCCCC3)cc2)C1 (stereo unspecified) | 54% |
| COc1ccc(N2CCN(C(=O)CSc3nnc4nc(C)cc(C)n34)CC2)cc1 | 15% |
| Cc1nn2c3cc(N4CCOCC4)ccc3nc2c2ccccc12 | 19% |
| c1nnc2c3c4c(sc3ncn12)CCCC4 | -5% |
| Cc1cc(NC(=O)CSc2nc(-c3ccco3)cc(C(F)(F)F)n2)n(-c2ccccc2)n1 | 47% |
| CCOC(=O)/C=C1\Nc2ccccc2SC1=O | -8% |
| CC1(C)OC(=O)C(=CNc2ncccn2)C(=O)O1 | -1% |
| CCOc1cc(C2NC(=O)NC(C)=C2C(=O)OC(C)CC)cc(Br)c1O (stereo unspecified) | 27% |
| CC(=O)N1CCc2cc(C(=O)CN3CCN(c4ccccc4F)CC3)ccc21 | 100% |
| O=C(CCn1c(=S)[nH]c2ccccc2c1=O)N1CCOCC1 | -1% |
| O=C1CN2C(=N1)N(Cc1ccccc1)c1ccccc12 | 4% |
| Cc1c(C2Nc3ccccc3NC3=C2C(=O)CC(C)(C)C3)cnn1C (stereo unspecified) | 10% |
| Cc1ccc2[nH]c3c(NCCCN4CCCC4=O)ncnc3c2c1 | 14% |
| C=CCN1CCN(C(c2cc(OC)ccc2OC)c2nnnn2CC2CCCO2)CC1 (stereo unspecified) | 40% |
| Fc1ccc(-c2noc(C3CCN(Cc4cccnc4)CC3)n2)cc1 | 38% |
| CCOC(=O)c1cc2c(=O)n3cccc(C)c3nc2n(CCc2ccc(OC)c(OC)c2)c1=N | 2% |
| CCN1CCN(CCCNC(=O)C2CCCN(c3nnc(-n4cccc4)s3)C2)CC1 (stereo unspecified) | 6% |
| CN(CCNC(=O)Cn1c(=O)sc2ccccc21)Cc1ccccc1 | 10% |

Filtered by structure, the compounds so far containing a furan ring, fused or not.
| mol | AmpC nodet inh |
| --- | --- |
| O=C(CNCc1ccco1)Nc1ccccc1-n1cccc1 | 0% |
| COc1c2c(nc3occc13)C(CCC(C)(C)O)(OC)C(O)CC2 (stereo unspecified) | 2% |
| Cc1cc(NC(=O)CSc2nc(-c3ccco3)cc(C(F)(F)F)n2)n(-c2ccccc2)n1 | 47% |

More records follow:
| mol | AmpC nodet inh |
| --- | --- |
| CC(=O)[C@@H]1CC[C@@H]2[C@@H]3CCC4=CC(=O)CC[C@@]4(C)[C@H]3CC[C@]21C | 64%[12.8 µM] |
| O=C(Cn1ncc2c(=O)oc3ccccc3c21)N1CCCc2ccccc21 | 15% |
| CC(C)C(C(=O)Nc1ccc2c(c1)OCCO2)N1C(=O)c2ccccc2C1=O (stereo unspecified) | -4% |
| CCOc1cc2[nH]c(=O)n(CCCN3CCCC3=O)c(=O)c2cc1OCC | 8% |
| CC(O)CO (stereo unspecified) | -3%&-20% |
| Cc1cc(OCC(=O)O)c2c3c(c(=O)oc2c1)CCCC3 | 0% |
| CCCCNC(=O)Cn1cnc2c(cnn2-c2ccc(C)c(C)c2)c1=O | 9% |
| Cc1c(/C(O)=C2/C(=O)C(=O)N(Cc3cccnc3)C2c2cccs2)cnn1-c1ccccc1 (stereo unspecified) | -8% |
| Cc1ccc(S(=O)(=O)CCC(=O)Nc2ccc3c(c2)OCO3)cc1 | -2% |
| CN(C)Cc1cc(C(C)(C)C)ccc1-c1ccc(C(C)(C)C)cc1CN(C)C | -4%[5.75 µM] |
| O=C(O)CCNc1cc2ccccc2cc1C(=O)O | 1% |
| CCOC(=O)Cn1c2ccccc2c2nc3ccccc3nc21 | 27% |
| COC(=O)c1ccccc1NC(=O)CSc1nnc(COc2cccc(OC)c2)n1C | 74% |
| O=C(Nc1cc(C(F)(F)F)ccc1N1CCOCC1)c1cncc(Br)c1 | 29% |
| Cn1c(=O)c2c(nc(N/N=C\c3ccccc3C(=O)O)n2C)n(C)c1=O | 10%[5.75 µM] |

The final 4 entries of the section before lead into the next.
| mol | AmpC nodet inh |
| --- | --- |
| CCOC(=O)Cn1c2ccccc2c2nc3ccccc3nc21 | 27% |
| COC(=O)c1ccccc1NC(=O)CSc1nnc(COc2cccc(OC)c2)n1C | 74% |
| O=C(Nc1cc(C(F)(F)F)ccc1N1CCOCC1)c1cncc(Br)c1 | 29% |
| Cn1c(=O)c2c(nc(N/N=C\c3ccccc3C(=O)O)n2C)n(C)c1=O | 10%[5.75 µM] |
| CCNc1nc(NC(C)C)nc(Oc2ccc(OCCOc3ccc(C)cc3)nn2)n1 | 98% |
| O=C1Nc2ccc(S(=O)(=O)NCCC3=CCCCC3)c3cccc1c23 | -20% |
| c1ccc(-c2nc(-c3ccco3)cs2)nc1 | 7% |
| Cc1cc(C)cc(OCC(=O)Nc2ccc(N3CCN(S(C)(=O)=O)CC3)cc2)c1 | 6% |
| Cc1ccc(S(=O)(=O)N2CCC(C(=O)N[C@@H](C)C(=O)NCCc3ccccc3)CC2)cc1 | 75% |
| Cc1ccccc1-c1nc(CS(=O)(=O)CC(=O)NCc2ccccc2)c(C)o1 | 30% |
| COCCCN1C(=O)c2[nH]nc(-c3ccccc3O)c2C1c1cccc(Cl)c1 (stereo unspecified) | 12% |
| CCOc1ccccc1N(CC(=O)N1CCCCCC1)S(C)(=O)=O | 18% |
| CCC(C)(C(=O)NC1CCCC1)N(CC1CCCO1)C(=O)CNC(=O)c1ccccc1 (stereo unspecified) | 25% |
| CCOc1cccc(N2C(=O)CC(n3cnc4ccccc43)C2=O)c1 (stereo unspecified) | 9% |
| Clc1ccc(Cn2cccc2C2=NCCO2)cc1 | 0% |
| CCOC(=O)C1CCCN(C(=O)CNC(=O)Cn2ccc3ccccc3c2=O)C1 (stereo unspecified) | 6% |
| CCN(CC)S(=O)(=O)c1ccc(C(=O)C(C#N)c2ccccn2)cc1 (stereo unspecified) | 2% |
| Cc1cc(C(=O)Nc2cccnc2)on1 | -6% |
| COc1cccc(N2CCN(C(=O)C3CCCN(S(=O)(=O)c4cnc[nH]4)C3)CC2)c1 (stereo unspecified) | 46% |
| COCCN(C(=O)Cc1cccs1)c1nnc(-c2ccncc2)s1 | 48% |
| O=C(CN1C(=O)c2cccc3cccc1c23)Nc1cccnc1 | 1% |
| CCOc1ccc(NC(=O)c2ccccc2NC(=O)CN2CCN(C(C)=O)CC2)cc1 | 75% |
| COc1ccc2c(c1)C(C)=CC(C)(C)N2C(=O)C(C)N1C(=O)c2ccccc2C1=O (stereo unspecified) | 65% |
| OC(CCCN1CCCCC1)(c1ccccc1)c1ccccc1 | -2%[12.8 µM] |
| CCOc1cc(NC(=O)c2ccco2)c(OCC)cc1NC(=O)COc1ccccc1C | -13% |
| CCOc1ccc(N2CC(C(=O)NC(C)C)CC2=O)cc1 (stereo unspecified) | -4% |
| CC1CCc2cc(F)ccc2N1C(=O)c1cc2nc(-c3ccco3)cc(C(F)(F)F)n2n1 (stereo unspecified) | 100% |
| N[C@H](Cc1cc(I)c(Oc2ccc(O)c(I)c2)c(I)c1)C(=O)O | 14%[12.8 µM] |
| O=C(CCS(=O)(=O)Cc1ccccc1)Nc1nc2c(s1)CCCC2 | 8% |
| CC(C)=C[C@H]1[C@@H](C(=O)OCc2cc3c(cc2Cl)OCO3)C1(C)C | -12%[5.75 µM] |
| CCn1nnc(NC(=O)CSc2ccc(Cl)cc2)n1 | -17% |
| CCOC(=O)c1cccc(NC(=O)CN(c2ccc(OC)cc2)S(=O)(=O)c2c(C)noc2C)c1 | 3% |
| CN1CCN(c2ncc3nc(-c4cn(C)c5ccccc45)c(=O)n(C)c3n2)CC1 | 111% |
| CCOC(=O)N1CCN(C(=O)CCCn2nc(C)c3sc4ccccc4c3c2=O)CC1 | 126% |
| CC(=O)N(CCCN(C)C)CCC(C)CCC=C(C)C (stereo unspecified) | 42% |
| COc1ccc(N2CC(C(=O)NCc3ccccc3)CC2=O)cc1 (stereo unspecified) | 17% |
| CCCCC#N | -8% |
| CC1=C(C(=O)Nc2cc(-c3cccc(F)c3)[nH]n2)C2(CCCCC2)OC1=O | 2% |
| COC(=O)C1=C(C)NC(=O)C1(NC(=O)CN1CCCC1=O)C(F)(F)F (stereo unspecified) | -2% |
| O=C(Cn1c(NCCCO)nc2ccccc21)c1ccco1 | 2% |
| CC1CCCCC1NC(=O)c1nn(C)c(=O)c2ccccc12 (stereo unspecified) | 20% |
| NCC(CC(=O)O)c1ccc(Cl)cc1 (stereo unspecified) | -8% |
| CC1(C)S[C@@H]2[C@H](NC(=O)Cc3ccccc3)C(=O)N2[C@@H]1C(=O)O | 5%[5.75 µM] |
| O=C(COC(=O)c1cnccn1)Nc1ccc(Cl)cc1 | -9% |
| Cc1ccc(C2C3=C(CC(C)(C)CC3=O)N(CCN3CCOCC3)C3=C2C(=O)CC(C)(C)C3)cc1 | 100% |
| O=C1C(O)CC2c3ccccc3CC3(CCCC3)N12 (stereo unspecified) | 8% |
| CCNC(=O)CSc1nc2ccccc2c(=O)n1OC | 8% |
| Cc1ccccc1OCCCN1CCCC1 | 1% |
| COc1ccc(-c2nc(-c3ccc(Br)o3)no2)cc1OC | 17% |
| Cc1cc(=O)[nH]c2c(C)c(N)ccc12 | 2% |
| CCOC(=O)C1CCN(C(=O)c2cc3c(-c4ccc(OC)c(OC)c4)nn(C)c3s2)CC1 | 119% |
| Cc1[nH]n2c(=O)cc(C(C)C)nc2c1-c1ccccc1 | -7% |
| N[C@H](C(=O)O)[C@@H]1[C@@H](C(=O)O)C1(F)F | 6% |
| Cc1ccc([C@@H](O)c2cnc(C)n2Cc2ccccc2)cc1 | 10%[5.75 µM] |
| CCOC(=O)C(C(C)=O)=C1SC2CS(=O)(=O)CC2S1 (stereo unspecified) | -3% |
| Cc1ccc(-c2nnc(SCC(=O)Nc3ccc(S(=O)(=O)N4CCCCCC4)cc3)o2)cc1 | 12% |
| CCCn1c(NC(=O)c2ccc(Cl)c(S(=O)(=O)N3CCCC3)c2)nc2ccccc21 | -4% |
| COc1ccccc1N1CCN(S(=O)(=O)c2ccccc2F)CC1 | 30% |
| O=P(c1ccccc1)(c1ccccc1)C(c1ccco1)N1CCOCC1 (stereo unspecified) | 25% |
| O=C(Cn1nnc(-c2ccc3c(c2)OCO3)n1)N1CCOCC1 | 2% |
| CN(CCNC(=O)CN1CCN(Cc2ccccc2Cl)C1=O)Cc1ccccc1 | 45% |
| CCOC(=O)Nc1cc2c(C)cc(=O)oc2cc1C | -5% |
| COC(=O)c1cc2c(=O)n3ccccc3nc2n(C(C)C)c1=N | 1% |
| O=C(O)c1ccccc1C(=O)Nc1n[nH]c(=S)s1 | -1% |

(more compounds)
| mol | AmpC nodet inh |
| --- | --- |
| O=C(NCc1cccnc1)c1c(F)c(F)c(F)c(F)c1F | -6% |
| Cc1cc(C)c(S(=O)(=O)N(C)Cc2cnn(C)c2)c(C)c1 | 38% |
| COc1ccc(C2=NOC(C(=O)NCc3ccc(F)cc3)C2)cc1OC (stereo unspecified) | 31% |
| C[C@H](N)c1nnc(SCc2ccc(Cl)cc2Cl)o1 | 26% |
| Clc1ccccc1-c1nnc2sc(-c3ccc4c(c3)OCO4)nn12 | 7% |
| CC(C)C12CN3CC(C(C)C)(CN(C1)C31C(=O)Nc3ccccc31)C2=O (stereo unspecified) | 29% |
| O=C(CSc1nnc(Cc2ccccc2)o1)Nc1ccc(Br)cn1 | -14% |
| COc1cc2oc(-c3ccccc3)cc(=O)c2cc1O | 4% |
| C[N+](C)(C)CC#CCOC(=O)Nc1cccc(Cl)c1 | -3% |
| COC(=O)c1cn(CC(=O)N2CCCCCC2)c2ccccc12 | 31% |
| Cc1noc(C)c1COC(=O)CCOc1ccccc1 | -3% |
| Cc1ccc(N2C(=O)c3ccccc3C2Nc2ccccc2F)nc1 (stereo unspecified) | 4µM*[single pt active] |
| Cc1nnc(SCC(=O)Nc2nc3c(s2)CC(C)CC3)s1 (stereo unspecified) | ? |
| CCOC(=O)C1=C(C)Nc2ccccc2N=C1NC(=O)CCCN1C(=O)c2ccccc2C1=O | -5% |
| CCOC(=O)C1=C(C)NC(C)=C(C(=O)OCC)C1C1=COCCO1 | 28% |
| O=c1cc2n(c(=O)[nH]1)CCC1=C2CCCC1 | -3% |
| CCOC(=O)c1sc(=NC(=O)c2cccc(OC)c2)n(C)c1C | 54% |
| N[C@@](C(=O)O)(c1ccc(P(=O)(O)O)cc1)C1CC1 | 24% |
| Cn1c(C(=O)NCc2ccco2)cc2c(=O)[nH]c3ccccc3c21 | 18% |
| Cc1ccc(-n2ncc3c(=O)n(CC(=O)NCc4ccco4)cnc32)cc1 | -20% |
| Clc1cccc(Cl)c1 | -8% |
| COC(=O)Cn1nnc(-c2cccc(OC)c2)n1 | 4% |
| COc1ccc(CCNC(=O)c2cc3sc(Cl)cc3n2C)cc1OC | 135% |
| CCc1ccccc1NC(=O)Cn1nnc(-c2cccnc2)n1 | 28% |
| COCC(=O)NCCNc1nc2ccc(C)cc2cc1C | 16% |
| COc1ccccc1N1CCN(C(=O)CSc2nnc(NC(=O)c3ccco3)s2)CC1 | 28% |
